Source: PubChem
Rce1 inhib: yeast Rce1p protease inhibitors, primary screen, biochemical, fluorescence, cell-free homogeneous; hit rate 0.27% among 290,000; CAAX prenyl protease 2 (Saccharomyces cerevisiae (strain ATCC 204508 / S288c)), Q03530; calls only; yeast membranes, quenched prenylated peptide cleavage fluorescence; AID 2563, 2010;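 active means fall in fluorescence gain of 50% or more versus controls, with final raw signal at or below 3038400; inconclusive means same 50% fall but final raw signal above 3038400; inactive means fall in fluorescence gain under 50%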;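 further: plate controls were neutral control wells for no effect and wells lacking membranes for full effect; tested at 10 µM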
Target sequence (Q03530 whole entry, looked up): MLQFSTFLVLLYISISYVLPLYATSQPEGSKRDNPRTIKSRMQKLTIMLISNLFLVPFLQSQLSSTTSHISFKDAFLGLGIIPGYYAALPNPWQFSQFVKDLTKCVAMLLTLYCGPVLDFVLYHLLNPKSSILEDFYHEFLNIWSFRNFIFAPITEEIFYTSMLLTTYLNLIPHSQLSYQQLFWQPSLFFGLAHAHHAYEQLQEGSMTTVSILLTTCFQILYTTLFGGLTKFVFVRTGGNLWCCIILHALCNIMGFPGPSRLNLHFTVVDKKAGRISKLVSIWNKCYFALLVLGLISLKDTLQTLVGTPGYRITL
MT1-MMP act inh: blockers of MT1-MMP proenzyme processing, primary screen, HT1080 RFP-PRO-GFP cells, GFP/RFP fluorescence; Matrix metalloproteinase-14 (Homo sapiens), P50281; GFP/RFP ratio fluorescence, overnight; percent of plate control window, DMSO zero; GFP/RFP ratio change, % at 20 µM; hit rate 0.061% among 360,000; AID 651647, 2012;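 active means GFP/RFP ratio change of at least 30% with cell ATP level not reduced by more than half and red fluorescence within 50% of control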; further: strong numbers were not always called active
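Test system: HT1080 RFP-PRO-GFP cells; Benchmarks: DMSO and RFP-L50D-GFP cell wells; Timing: cells overnight before dosing, compound overnight, 37 °C, 5% CO2; Compound: one 20 µM compound dose with 1% DMSO; Read-out: GFP/RFP fluorescence ratio.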
CSC inhib: cancer stem cell viability inhibitors, primary screen, luminescence | cancer stem cell-like cells viability | inhibition, % at 7.5 µM | hit rate 1.1% among 300,000 | AID 2717, 2010;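 active means mean at 75% or more and at least half the replicates too; inconclusive means mean and replicates disagree; tested in HMLE shEcad cells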;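 further: 0% = median of negative and 100% = median of positive control wells; the first replicate is given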
PABP polyA inh: PABP poly(A) RNA binding inhibitors, primary screen, biochemical, fluorescence polarization, uHTS | AID 2014, 2009 | inhibition, % at 35 µM | Polyadenylate-binding protein 1 (Homo sapiens), P11940 | hit rate 1% among 290,000;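 active means 50% or more with normal probe brightness, or confirmed in later tests; inconclusive means above 50% with abnormal brightness, or retests that disagree; inactive means below 50% or failed in later tests; about a fifth of its hits are not listed in these tables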;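 further: calls also rest on retests at 20 µM and on dose response follow-up; controls were probe without protein and protein plus probe with vehicle; some compounds called inactive have numbers as strong as hits; many hits fall short of the cut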
Target sequence (P11940 whole entry, looked up): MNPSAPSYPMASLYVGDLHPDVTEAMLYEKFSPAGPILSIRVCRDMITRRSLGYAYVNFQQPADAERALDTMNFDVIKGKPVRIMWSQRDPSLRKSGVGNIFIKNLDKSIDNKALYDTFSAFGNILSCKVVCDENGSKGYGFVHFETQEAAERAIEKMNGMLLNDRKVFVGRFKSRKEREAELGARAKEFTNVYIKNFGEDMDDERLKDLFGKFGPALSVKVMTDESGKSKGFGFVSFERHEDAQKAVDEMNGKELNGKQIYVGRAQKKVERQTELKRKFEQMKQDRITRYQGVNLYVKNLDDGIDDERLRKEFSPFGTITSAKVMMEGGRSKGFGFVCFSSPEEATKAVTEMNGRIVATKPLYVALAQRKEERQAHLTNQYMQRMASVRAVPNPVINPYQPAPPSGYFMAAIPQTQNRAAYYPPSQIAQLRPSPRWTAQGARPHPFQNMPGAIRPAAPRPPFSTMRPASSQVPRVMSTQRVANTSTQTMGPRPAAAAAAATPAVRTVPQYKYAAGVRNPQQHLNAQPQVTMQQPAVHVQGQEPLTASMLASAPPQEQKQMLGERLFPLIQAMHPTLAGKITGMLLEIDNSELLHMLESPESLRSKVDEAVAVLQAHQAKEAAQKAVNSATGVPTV
UUG fidelity: modulators of yeast start codon fidelity, primary screen, whole organism, S. cerevisiae, single point, plate reader | S. cerevisiae UUG-firefly luciferase reporter, luminescence/redox ratio | activity score, % at 18.7 µM | hit rate 0.13% among 350,000;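 active means replicate mean at a twofold rise or more, about +100% in these data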;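 further: firefly luciferase made from a UUG start codon reports start codon fidelity; reporter light over untreated wells divided by growth signal over untreated wells; some hits fall short of that in this replicate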
eIF4H FP inh: human eIF4H binding inhibitors, primary screen, translation initiation inhibitor project, biochemical, uHTS, fluorescence polarization; Eukaryotic translation initiation factor 4H (Homo sapiens), Q15056; eIF4H fluorescence polarization binding assay; inhibition, % at 35 µM; hit rate 0.94% among 290,000; AID 2012, 2009;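 active means 50% or more with normal probe brightness, or confirmed in later tests; inconclusive means above 50% with abnormal brightness, or retests that disagree; inactive means below 50% or failed in later tests; about a fifth of its hits are not listed in these tables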;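 further: calls also rest on retests at 20 µM and on dose response follow-up; 0% = protein and probe with vehicle and 100% = probe without protein; strong numbers were not always called active; many hits fall short of the cut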
Env fusion inh: inhibitors of HIV-1 Env-driven cell-cell fusion, primary screen, HeLa-JRFL effector, CEM21 target cells, luciferase. inhibition, % at 12.3 µM. hit rate 1.1% among 360,000;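 active means mean replicate inhibition score of at least 50 and every replicate individually at or above 50; inconclusive means only one of the two criteria met; inactive means mean below 50 and not all replicates reaching 50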;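 further: 0% = plate neutral controls and 100% = maraviroc near 300 nM; one replicate is shown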
eIF4H FP inh retest: recorded beside eIF4H FP inh, whose call it bears; inhibition, %; compound at 20 µM; confirmation average;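 mean of two retest wells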
PABP polyA inh retest: second read-out of PABP polyA inh, no call of its own (marks repeat the call); inhibition, %; compound at 20 µM; confirmation repeats;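 mean of two retest wells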
MT1-MMP act inh RFP: second read-out of MT1-MMP act inh, no call of its own (marks repeat the call); RFP signal change, %; measured here: RFP expression control read;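 0 = vehicle wells; hits needed this value within 50% of zero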
* marks the source's active call; other numbers are inactive results; i = inactive; ? = inconclusive; / = not tested or not shown. An excerpt (hit frequency here may not be typical).

SMILES | Rce1 inhib | MT1-MMP act inh | MT1-MMP act inh RFP | CSC inhib | PABP polyA inh | UUG fidelity | eIF4H FP inh | Env fusion inh | others
COc1ccc(N2C(=O)CC(c3ccc(OC(C)C)cc3)C2=O)cc1 (centres undefined) | i | 2.2 | -1.0 | -1.9 | -1.1 | -20.3 | -2.4 | 0.7
CCOC(=O)CSC1=C(C#N)C(c2ccccc2F)C(C(C)=O)=C(C)N1 (centres undefined) | i | -7.0 | -5.7 | 8.1 | ? | -7.6 | 50.4* | / | eIF4H FP inh retest=68.7*
COc1ccc(CCNC(=O)Cc2c(Cl)cccc2Cl)cc1 | i | 1.3 | 2.3 | -1.5 | 3.7 | / | -2.1 | 9.4
O=C(CSc1nc2ccccc2s1)N1c2ccccc2Sc2ccc(C(F)(F)F)cc21 | i | -2.6 | -1.7 | 8.5 | 3.8 | / | -2.0 | 8.4
Brc1ccsc1/C=N/Nc1ccccc1 | i | -0.5 | -2.4 | 64.5 | / | / | / | -31.8
COc1ccc(C(=O)O)cc1NCc1cccnc1 | i | 1.8 | 2.0 | -3.3 | 4.7 | -14.5 | -3.9 | -7.2
S=C(Nc1cccc(Cl)c1)NC1CC2CCCC(C1)N2C1CCCC1 (centres undefined) | i | 0.7 | 3.0 | -2.4 | 5.3 | / | 3.0 | 8.2
Cc1cccc(-n2c(Cc3cc(=O)[nH]c(=O)[nH]3)nnc2SCC(=O)Nc2cccc(C(F)(F)F)c2)c1 | i | -0.9 | 4.8 | / | 2.0 | / | 4.8 | 3.4
O=C(CSc1nncs1)Nc1ccc2c(c1)OCO2 | i | 1.1 | 2.4 | -7.8 | -6.8 | / | -1.4 | 10.6
CCCn1c(=S)[nH]c2cc(C(=O)N(CCO)Cc3ccccc3)ccc2c1=O | i | 3.0 | -6.5 | -18.2 | -5.1 | -14.5 | 77.3 | 1.6 | eIF4H FP inh retest=-0.6;PABP polyA inh retest=5.0
O=C(NC1CCCCC1)N1CCSC1=Nc1ccccc1 | / | 3.3 | -10.2 | 13.1 | 0.7 | -12.1 | 1.7 | -21.3
[O-]/[N+](=C/c1ccccc1)c1ccccc1 | / | -12.0 | -2.2 | -11.8 | / | 4.6 | / | 12.4
NS(=O)(=O)c1ccc(CCNc2ccc(C(F)(F)F)cn2)cc1 | / | -1.6 | -1.8 | -11.1 | 5.7 | -17.4 | -9.8 | -4.3
CCOC(=O)c1c(NC(=O)CSc2nnc(C)c(=O)[nH]2)sc2c1CCCC2 | i | 1.4 | -1.5 | 10.1 | 22.5 | -3.2 | 3.0 | -48.0
CN(Cc1cccs1)C(=O)CCNS(=O)(=O)c1ccc(Br)cc1 | / | 0.5 | 0.3 | / | / | 3.9 | / | -1.3
CCc1ccc(OCCNC(=O)c2ccccc2SCc2ccccc2)cc1 | i | -10.5 | -12.4 | 50.0 | -1.1 | -0.8 | 4.1 | /
C=CCn1c(O)c(C2=c3ccccc3=NC2=O)s/c1=N/c1nccs1 | i | 10.7 | 2.8 | -5.7 | 3.7 | 2.0 | 3.7 | 11.5
CCNC(=O)c1cccc(NC(=O)c2cc(C3CC3)nc3c2cnn3C(C)C)c1 | / | 3.0 | -2.2 | / | / | -8.5 | / | -1.2
CC/C(=N\NC(=O)CSc1ncccn1)c1ccc2c(c1)OCCO2 | i | 8.4 | 7.4 | -27.0 | 2.9 | -5.8 | -2.5 | 14.0
Cn1c2ccccc2c2c(C(=O)NCC3CCCO3)cn(C3CCCC3)c(=O)c21 (centres undefined) | i | -3.1 | 0.8 | 1.9 | 22.4 | -9.2 | 7.7 | /
CC1CCCN(C(=O)C23CCC(C)(C(=O)C2)C3(C)C)C1 (centres undefined) | i | 1.7 | 2.6 | -4.7 | -8.1 | 2.1 | 2.1 | /
O=C(CN1CCN(Cc2ccc(F)cc2Cl)C1=O)NCCc1ccc(Cl)cc1 | i | -0.9 | -10.4 | -6.4 | -4.1 | -15.4 | -0.7 | 18.7
COc1ccccc1-c1cc(C(=O)Nc2ccccc2SC)no1 | i | -3.4 | -0.8 | -15.0 | 9.7 | -21.5 | -2.9 | -24.1
Cc1ccccc1NC(=O)c1ccco1 | i | 0.3 | 2.2 | -7.7 | 6.0 | -13.7 | 13.1 | 5.5

5 compounds already listed, sorted by number of heavy atoms, descending:
SMILES | Rce1 inhib | MT1-MMP act inh | MT1-MMP act inh RFP | CSC inhib | PABP polyA inh | UUG fidelity | eIF4H FP inh | Env fusion inh | others
Cn1c2ccccc2c2c(C(=O)NCC3CCCO3)cn(C3CCCC3)c(=O)c21 (centres undefined) | i | -3.1 | 0.8 | 1.9 | 22.4 | -9.2 | 7.7 | /
O=C(CN1CCN(Cc2ccc(F)cc2Cl)C1=O)NCCc1ccc(Cl)cc1 | i | -0.9 | -10.4 | -6.4 | -4.1 | -15.4 | -0.7 | 18.7
CCOC(=O)c1c(NC(=O)CSc2nnc(C)c(=O)[nH]2)sc2c1CCCC2 | i | 1.4 | -1.5 | 10.1 | 22.5 | -3.2 | 3.0 | -48.0
C=CCn1c(O)c(C2=c3ccccc3=NC2=O)s/c1=N/c1nccs1 | i | 10.7 | 2.8 | -5.7 | 3.7 | 2.0 | 3.7 | 11.5
COc1ccccc1-c1cc(C(=O)Nc2ccccc2SC)no1 | i | -3.4 | -0.8 | -15.0 | 9.7 | -21.5 | -2.9 | -24.1

Later entries
SMILES | Rce1 inhib | MT1-MMP act inh | MT1-MMP act inh RFP | CSC inhib | PABP polyA inh | UUG fidelity | eIF4H FP inh | Env fusion inh | others
C/C=C/C=C\C(=O)Nc1cccc(C2=NOC3(C2)C[C@@H](C(N)=O)N(C(=O)c2cc([N+](=O)[O-])cc([N+](=O)[O-])c2C)C3)c1 (some centres undefined) | i | 1.1 | 0.9 | -15.1 | 0.2 | 0.2 | 3.4 | -18.1
Cc1cccc(NC(=O)CC2C(=O)NCCN2C(=O)Nc2ccc(Cl)cc2)c1 (centres undefined) | i | 0.6 | -0.6 | -4.3 | -2.8 | 12.0 | -2.0 | 11.3
Cc1ccnc(N=Cc2c(O)ccc3oc4c(c23)CCCC4)c1 | / | / | / | 39.9 | -8.1 | / | 87.4 | / | eIF4H FP inh retest=11.5;PABP polyA inh retest=1.5
O=C(O)C(CCc1ccccn1)c1ccccc1 (centres undefined) | / | 1.6 | 2.5 | / | / | -19.3 | / | -19.1
CCOC(=O)C1(CCOc2ccccc2)CCN(C(=O)c2cncs2)CC1 | i | -0.5 | -0.9 | / | -4.3 | -0.2 | 5.1 | -15.2
N#CCCN/N=C(/Cc1nc2ccccc2[nH]1)c1ccc(Cl)cc1 | i | / | / | -2.5 | 32.7 | / | 53.3 | / | eIF4H FP inh retest=-6.0;PABP polyA inh retest=13.3
COc1cc(CCNc2ccc3nnc(-c4ccccc4)n3n2)cc(OC)c1OC | i | -0.5 | -2.4 | -5.7 | -2.9 | -26.7 | -4.0 | 23.1
CCN1CCN(CCCNC(=O)c2cc3c(=O)[nH]c4ccccc4c3s2)CC1 | i | 12.6 | 3.2 | -2.8 | 12.6 | -1.2 | 2.6 | /
CC1CCCN(C(=O)COC(=O)CNC(=O)c2sc3ccccc3c2Cl)C1 (centres undefined) | / | -3.1 | 3.6 | -11.7 | / | 12.7 | / | -7.6
CN(c1ccc(OCC(=O)N2CCOCC2)cc1)S(=O)(=O)c1ccc(Cl)cc1 | i | 5.6 | -0.3 | -16.6 | -7.7 | / | -0.4 | 4.0
O=C(/C=C/c1ccco1)NC(=S)Nc1cccc(-c2nc3ccccc3s2)c1 | i | -14.0 | -9.5 | 65.7 | / | 8.8 | / | /
COc1ccc(Cl)cc1-c1cc(C(=O)NCc2ccc(F)cc2)[nH]n1 | / | 1.3 | -2.2 | / | / | -9.3 | / | -10.8
O=C(NCc1cccs1)c1ccc(S(=O)(=O)N2CCCCC2)cc1 | i | -5.0 | -0.4 | -30.5 | 8.8 | / | -2.6 | 17.0
CC(=O)c1ccc(S(=O)(=O)N2CCN(C(=O)c3cccc(S(=O)(=O)N4CC(C)OC(C)C4)c3)CC2)cc1 (centres undefined) | / | 5.5 | -4.5 | / | / | -1.0 | / | 8.1
Cc1ccc(CN(C)C(=O)CSc2nnc3n2CCCCC3)c(C)c1 | / | 16.4 | -0.9 | / | / | 2.6 | / | -7.3
COc1cccc(/C=C2\N=C3CCCCCN3C2=O)c1 | / | 3.4 | -0.4 | -3.4 | -2.0 | -18.6 | -5.2 | -19.5
Cc1ccccc1C(=O)Nc1cccc(NC(=O)c2ccc(-c3ccc(Br)cc3)o2)c1 | i | 6.6 | -3.8 | 20.5 | 0.5 | -14.1 | -10.2 | /
CCCCCCc1nnc(N)s1 | i | 0.4 | -1.4 | 10.1 | 3.2 | -15.8 | -7.7 | /
O=C1c2ccccc2C(=O)N1CC(=O)N1c2ccccc2Sc2ccc(C(F)(F)F)cc21 | i | -0.7 | -9.2 | / | -4.4 | -3.3 | -0.1 | /
CCCCN(CC(=O)NC1CCCC1)C(=O)C(=O)Nc1ccc2c(c1)OCCO2 | i | -5.7 | -2.6 | -0.3 | -5.7 | 7.5 | 2.8 | -32.5
CCOC(=O)[C@H]1[C@H]2COc3ccccc3[C@@H]2N2C(=O)c3cc(Br)ccc3NC(=O)[C@@]12C | / | -6.1 | -1.7 | 6.6 | / | -0.2 | / | -35.0
COc1ccc(C(=S)N2CCN(C)CC2)cc1Br | i | -2.7 | -3.8 | -0.5 | -4.8 | -15.0 | -11.2 | /
C=CCNc1nc(C)c(CNc2c(C)cc(C)cc2C)nc1C#N | i | 2.1 | -3.9 | 11.1 | 3.1 | -18.7 | -0.4 | -9.4
C=C(C)[C@@H]1CC=C(CN2CCC(CCOC)(C(=O)OCC)CC2)CC1 | i | -11.2 | -2.8 | 10.4 | 1.9 | 8.5 | -7.6 | -0.5
O=C(O)CSc1nnc(-c2ccc3c(c2)OCO3)o1 | i | -2.4 | 4.0 | 7.4 | 6.6 | -9.7 | 0.1 | -62.3
CCCCOC(=O)Nc1ccc(N2CCCCC2)cc1 | i | 5.9 | -0.7 | -1.6 | -3.1 | -10.0 | -8.6 | -282.0
COC(=O)c1cc2c(cc1Cl)N1CCCCCC1=NS2(=O)=O | i | 7.5 | 4.7 | -21.3 | 0.6 | / | -6.2 | 4.6
Cc1ccc(OCC(=O)Nc2ccc(F)cc2)cc1C | i | -8.8 | -3.8 | 3.8 | -7.1 | -11.1 | -2.3 | /
COc1ccc(Cn2c(C)ccc2C)cc1 | i | -6.6 | 2.6 | -10.8 | 3.6 | -6.4 | 1.7 | -33.7
